# MITF inhib: blocks MITF activity | TRPM1 promoter luciferase, luminescence, 24 h | inhibition, % (no concentration beside the values) | actives 0.28% (n = 37,000);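 active = most replicates at 85% or more, or half of them and the mean; inconclusive = half reach 85% but not the mean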;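 also: human melanocyte line stably carrying TRPM1 promoter luciferase reporter; 0% = vehicle wells and 100% = a positive control; the first replicate is given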
# Hedgehog inh: blocks Sonic Hedgehog signaling | Shh-LIGHT2 Gli-luciferase reporter, 30 h | inhibition, % (concentration not given with the values) | actives 2.1% (n = 22,000);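 active = replicate mean of 65% or more; inconclusive = mean lower but half the replicates past it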;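 also: pathway switched on by Shh-conditioned medium diluted 1 in 25 in low serum; 100 nL library stock added to about 40 µL; 0% = median of neutral wells and 100% = positive control level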
# PD-1 reversal: activators reversing PD-1 mediated T-cell inhibition; primary human CD4 T cells, PD-L1 beads, CellTiter-Glo 96 h; activation, % (test concentration not listed); 29,000 tested, under 10 active; AID 2316;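 active = replicate mean of 50% or more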;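 also: 0% = median vehicle wells and 100% = positive control; 100 nL library stock added to about 50 µL; numbers are from one replicate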
# YB-1 expr inh: YB-1 expression inhibition. U2OS, qRT-PCR YB-1 vs CDIP delta delta Cp, 16 h; hits give high values; zero = DMSO, each unit about twofold. delta delta Cp (YB-1 minus CDIP) (test concentration not listed). actives 0.37% (n = 30,000);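 active = delta delta Cp rounded down to an integer at or above 3, about 3 SD of DMSO wells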;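 also: higher means less YB-1 transcript or more CDIP transcript relative to DMSO; stock transfer was 100 nL into about 100 µL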
# * hit, by the source's call; u = inconclusive; x = no result given.
mol,MITF inhib,Hedgehog inh,PD-1 reversal,YB-1 expr inh
COc1ccc2ccc(=O)oc2c1CC(O)C(C)(C)OC (stereo not drawn),19,-14,0.9,-0.19
C[C@@H]1CN([C@H](C)CO)C(=O)c2cc(NC(=O)C3CC3)ccc2O[C@H]1CN(C)C(=O)Nc1ccc(C(F)(F)F)cc1,-16,7,-3.5,-0.094
Cc1ccc(C(=O)c2coc3ccc(O)c(CN(C)C)c23)cc1,-17,39,-1.6,0.31
C[C@H]1CN([C@@H](C)CO)C(=O)Cc2cc(N(C)C)ccc2O[C@@H]1CN(C)Cc1ccc(-c2ccccc2)cc1,-7,33,-1.6,0.066
CN(CC(=O)Nc1ccccc1Sc1ccccc1)S(=O)(=O)c1ccc(F)cc1,-11,x,-0.7,x
C[C@H](CO)N1C[C@H](C)[C@H](CN(C)C(=O)Nc2ccc3c(c2)OCO3)Oc2c(NS(=O)(=O)c3ccc(Cl)cc3)cccc2C1=O,20,0,-4.9,0.23
COc1ccc(CN(C)C[C@H]2Oc3c(NC(=O)c4ccc(-c5nccs5)cc4)cccc3C(=O)N([C@H](C)CO)C[C@@H]2C)cc1,37,53,x,0.094
C[C@@H]1CCCCO[C@@H](CN(C)CC2CC2)[C@@H](C)CN([C@H](C)CO)C(=O)c2cc(N(C)C)ccc2O1,0,32,3.7,-0.12
CC(C)NC(=O)N(C)C[C@@H]1Oc2c(NC(=O)Nc3ccccc3)cccc2C(=O)N([C@H](C)CO)C[C@H]1C,-3,13,-1.0,-0.81
C[C@H]1CN([C@@H](C)CO)C(=O)c2cccc(NS(=O)(=O)c3ccccc3)c2O[C@@H]1CN(C)S(=O)(=O)c1ccc(Cl)cc1,-8,9,0.5,-0.0082
NCc1cn[nH]c1-c1ccccc1,12,20,0.2,0.28
C[C@H](CO)N1C[C@H](C)[C@H](CN(C)S(=O)(=O)c2ccc(Cl)cc2)Oc2ccc(N(C)C)cc2C1=O,3,4,-0.4,0.52
Cc1ccc(F)c(NC(=O)CSc2nnc(-c3ccccc3)n2C)c1,-16,x,1.5,x
CC(C)NC(=O)N(C)C[C@@H]1Oc2ccc(NS(=O)(=O)c3ccc(Cl)cc3)cc2C(=O)N([C@@H](C)CO)C[C@@H]1C,-11,3,0.7,0.28
COc1ccc(CN(C)C[C@@H]2Oc3ccc(NC(=O)CCC(F)(F)F)cc3CC(=O)N([C@H](C)CO)C[C@H]2C)cc1,-7,x,-0.4,0.05
C/C(=C\CC[C@@H](C)[C@H]1CC(O)[C@@]2(C)C3CC[C@H]4C(C)(C)[C@@H](O[C@@H]5OC(CO)C(O)C(O)C5OC5OC(CO)C(O)C(O)C5O)CC[C@@]45C[C@@]35CC(O)[C@]12C)C(=O)O (stereo partly drawn),38,12,1.2,-0.45
C[C@@H]1CN([C@H](C)CO)C(=O)c2cc(NC(=O)CCC(F)(F)F)ccc2O[C@@H]1CN(C)Cc1ccc(Cl)c(Cl)c1,-8,x,-3.1,0.38
C[C@H]1CN([C@@H](C)CO)C(=O)c2cccc(NC(=O)C3CC3)c2O[C@H]1CN(C)S(C)(=O)=O,-3,-20,2.8,-1.3
CC(C)NC(=O)N(C)C[C@@H]1Oc2ccc(NS(=O)(=O)c3ccc(Cl)cc3)cc2CC(=O)N([C@@H](C)CO)C[C@@H]1C,-13,-20,2.7,-0.66
Cc1ccc(C(=O)CSc2nc3ccccc3o2)cc1[N+](=O)[O-],19,x,1.1,x
C[C@H]1CN([C@@H](C)CO)C(=O)Cc2cc(NS(=O)(=O)c3ccc(F)cc3)ccc2O[C@H]1CN(C)Cc1ccc(C(=O)O)cc1,12,-17,1.8,-0.16
CCc1ccc(-n2nc3cc(C)c(NC(=O)COc4ccccc4[N+](=O)[O-])cc3n2)cc1,4,x,1.8,x
C[C@H]1CN([C@@H](C)CO)C(=O)c2cc(NS(=O)(=O)c3ccccc3)ccc2O[C@@H]1CN(C)Cc1ccc(-c2ccccc2)cc1,14,-3,-1.9,-0.13
C[C@H]1CN([C@@H](C)CO)C(=O)Cc2cc(NS(=O)(=O)c3ccc(Cl)cc3)ccc2O[C@H]1CN(C)Cc1ccc2c(c1)OCO2,-14,27,x,-0.12
Cc1c(NC(=O)CNS(=O)(=O)c2ccc(Br)cc2)c(=O)n(-c2ccccc2)n1C,3,x,-0.6,x
Cc1noc(C)c1NC(=O)Nc1ccc2c(c1)C(=O)N([C@H](C)CO)C[C@@H](C)[C@H](CN(C)C(=O)Nc1ccc3c(c1)OCO3)O2,-1,-13,0.7,0.26
C[C@H]1CN([C@@H](C)CO)C(=O)c2cc(NS(=O)(=O)c3cn(C)cn3)ccc2O[C@H]1CN(C)Cc1ccncc1,0,-2,0.9,0.049
CC(=O)N1CCc2cc(NC(=S)Nc3ccccc3Cl)ccc21,-45,9,-1.2,0.31
Cc1ccc(S(=O)(=O)NC2c3cccc4cccc(c34)C2Sc2nnc(N)s2)cc1 (stereo not drawn),33,x,0.4,x
C[C@@H]1CN([C@@H](C)CO)C(=O)c2cc(NC(=O)Cc3ccccc3)ccc2O[C@@H]1CN(C)Cc1ccncc1,-15,x,x,0.061
CCC(C)C(OC1OC(C)C(O)C(O)C1O)C(C)C(=O)C(C)/C=C(\C)CC(C)C(O)C(C)C(=O)O (stereo not drawn),x,30,x,0.36
COc1ccc(NC(=O)Nc2cccc3c2O[C@H](CN(C)Cc2ccc4c(c2)OCO4)[C@@H](C)CN([C@@H](C)CO)C3=O)cc1,-15,-38,-1.5,-0.097
C[C@H]1CN([C@@H](C)CO)C(=O)Cc2cc(NC(=O)NC3CCCCC3)ccc2O[C@@H]1CN(C)C(=O)NC1CCCCC1,-2,-22,0.3,0.26
Cc1cc(C(=O)Nc2cccc3c2O[C@H](CN(C)C)[C@@H](C)CN([C@@H](C)CO)C3=O)n(C)n1,-10,-4,0.7,-0.069
COc1ccc(NC(=O)CN(c2cccc3ccccc23)S(C)(=O)=O)cc1OC,1,x,-0.3,x
C[C@@H]1CN([C@H](C)CO)C(=O)Cc2cc(NC(=O)Cn3cnnn3)ccc2O[C@H]1CN(C)S(=O)(=O)c1ccc(Cl)cc1,-22,19,1.7,-0.29
COc1ccc(NC(=O)Nc2cccc3c2O[C@@H](CN(C)S(=O)(=O)c2cccs2)[C@@H](C)CN([C@@H](C)CO)C3=O)cc1,-35,7,-0.8,-0.18
C[C@H](CO)N1C[C@H](C)[C@H](CN(C)C(=O)NC2CCCCC2)Oc2c(NC(=O)Nc3ccc4c(c3)OCO4)cccc2C1=O,20,26,-2.4,-0.25
Cc1ccc(S(=O)(=O)N(C)C[C@@H]2Oc3ccc(NC(=O)CCN4CCOCC4)cc3CC(=O)N([C@H](C)CO)C[C@H]2C)cc1,4,-27,0.9,-0.28
O=C(COc1ccc2ccccc2c1Br)NCCN1CCOCC1,-54,x,-0.1,x
C[C@H]1CN([C@@H](C)CO)C(=O)c2cccc(N(C)C)c2O[C@@H]1CN(C)C(=O)Nc1cccc2ccccc12,10,-30,-0.2,0.26
C[C@@H]1CCCCO[C@@H](CN(C)S(=O)(=O)c2cn(C)cn2)[C@@H](C)CN([C@H](C)CO)C(=O)c2cc(NC(=O)C3CCCCC3)ccc2O1,-6,-31,-1.4,-0.68
CCc1oc2ccccc2c1C(=O)c1ccc(OC(C)=O)cc1,32,11,-1.6,0.086
C[C@H](CO)N1C[C@H](C)[C@H](CN(C)S(=O)(=O)c2ccc(F)cc2)Oc2ccc(NS(=O)(=O)c3cn(C)cn3)cc2CC1=O,1,-13,2.7,0.07
C[C@@H]1CN([C@@H](C)CO)C(=O)Cc2cc(NS(=O)(=O)c3cccs3)ccc2O[C@@H]1CN(C)CC1CC1,3,x,0.4,-0.38
CC(C)NC(=O)N(C)C[C@@H]1Oc2c(NC(=O)c3cnccn3)cccc2C(=O)N([C@H](C)CO)C[C@@H]1C,-9,-68,1.9,0.23
COc1ccccc1NC(=O)CC(C(=O)O)N(C)C (stereo not drawn),-13,x,2.6,x
Cc1ccc(S(=O)(=O)Nc2ccc3c(c2)C(=O)N([C@H](C)CO)C[C@H](C)[C@@H](CN(C)S(C)(=O)=O)OCCCC[C@@H](C)O3)cc1,-4,30,2.1,-0.042
COc1ccc(NC(=O)Nc2ccc3c(c2)CC(=O)N([C@@H](C)CO)C[C@H](C)[C@H](CN(C)S(=O)(=O)c2cn(C)cn2)O3)cc1,-8,5,0.6,-0.18
COC(=O)Cn1c2ccccc2c2nc(C)sc21,18,x,1.8,x
Cc1cc(C)cc(N(C(C)C(=O)Nc2cccc3ccccc23)S(C)(=O)=O)c1 (stereo not drawn),31,x,-1.9,x
CC(=O)c1cccc(NC(=O)C(C)NS(=O)(=O)c2ccc(Cl)cc2)c1 (stereo not drawn),-21,x,1.1,x
C[C@H]1CN([C@@H](C)CO)C(=O)Cc2cc(NS(=O)(=O)c3ccc(Cl)cc3)ccc2O[C@@H]1CN(C)Cc1ccc(Oc2ccccc2)cc1,20,42,0.1,-0.063
NC(=O)NC1C(=O)c2ccccc2OC1c1ccccc1 (stereo not drawn),12,35,-5.3,-0.082
C[C@@H]1CN([C@@H](C)CO)C(=O)c2cccc(NC(=O)Nc3ccc4c(c3)OCO4)c2O[C@@H]1CN(C)CC1CC1,-11,21,1.6,-0.0042
CCOc1ccc(-c2nnc(SCC(=O)O)n2-c2ccccc2)cc1,-11,x,0.6,x

# (listing goes on)
mol,MITF inhib,Hedgehog inh,PD-1 reversal,YB-1 expr inh
C=CC1C(=C)CCC2C1CCC1C(C)(C(=O)O)CCCC21C (stereo not drawn),-19,-15,-0.2,-0.12
C=CCNC1=C2C[C@@H](C)C[C@H](OC)[C@H](O)[C@@H](C)/C=C(\C)[C@H](OC(N)=O)[C@@H](OC)C=C/C=C(/C)C(=O)NC(=CC1=O)C2=O,15,108*,x,-0.032
CC(C)(C)N1C(=O)c2ccccc2C1=O,4,x,0.8,0.3
Cc1ccc(S(=O)(=O)N(C)C[C@H]2Oc3c(NC(=O)Nc4cccc5ccccc45)cccc3C(=O)N([C@H](C)CO)C[C@H]2C)cc1,-2,-2,0.6,-0.041
Cc1cc2ncn(CC(O)COc3ccccc3Cl)c2cc1C (stereo not drawn),8,x,-3.9,x
C[C@@H]1CN([C@H](C)CO)C(=O)Cc2cc(NS(=O)(=O)c3cn(C)cn3)ccc2O[C@@H]1CN(C)Cc1ccc(C(F)(F)F)cc1,-14,10,0.5,0.51
Cc1cccc(-c2nnc(SCC(=O)Nc3ccc(Br)cc3C(C)C)n2C)c1,-10,x,-1.6,x
COc1ccc(S(=O)(=O)Nc2ccc3c(c2)C(=O)N([C@H](C)CO)C[C@H](C)[C@@H](CN(C)C(=O)Nc2c(C)noc2C)OCCCC[C@@H](C)O3)cc1,-14,-14,-0.3,-0.18
Cc1ccc(S(=O)(=O)Nc2ccc3c(c2)CC(=O)N([C@H](C)CO)C[C@@H](C)[C@@H](CN(C)S(=O)(=O)c2ccc(Cl)cc2)O3)cc1,0,2,-0.3,0.16
C[C@@H]1CN([C@@H](C)CO)C(=O)c2cccc(NS(=O)(=O)c3ccccc3)c2O[C@@H]1CN(C)Cc1ccccc1,-3,1,x,0.66
CC(C)NC(=O)N(C)C[C@H]1Oc2ccc(NS(=O)(=O)c3ccc(Cl)cc3)cc2CC(=O)N([C@@H](C)CO)C[C@@H]1C,-20,-11,0.6,-16
Cc1ccc(-c2nnc(SCC(=O)Nc3ccc(Br)c(C)c3)n2C)cc1,20,x,0.1,x
Cc1ccc(S(=O)(=O)N(C)C[C@H]2Oc3ccc(NS(C)(=O)=O)cc3C(=O)N([C@@H](C)CO)C[C@H]2C)cc1,12,-17,1.4,-0.31
C[C@H](CO)N1C[C@H](C)[C@@H](CN(C)Cc2ccc(Cl)c(Cl)c2)Oc2ccc(NC(=O)CCC(F)(F)F)cc2C1=O,-4,x,0.9,0.027
C[C@H](CO)N1C[C@H](C)[C@@H](CN(C)S(C)(=O)=O)Oc2ccc(NC(=O)Nc3ccc(F)cc3)cc2C1=O,-2,-28,x,0.36
C[C@H](CO)N1C[C@H](C)[C@H](CN(C)Cc2ccc(-c3ccccc3)cc2)Oc2c(NC(=O)Nc3ccccc3)cccc2C1=O,8,-3,-1.0,-0.41
C[C@@H]1CN([C@@H](C)CO)C(=O)c2cc(NS(=O)(=O)c3cn(C)cn3)ccc2O[C@H]1CN(C)Cc1ccc2c(c1)OCO2,-1,x,1.2,-0.056
Cc1csc2sc(COC(=O)Nc3ccccc3)c(C)c12,13,u,0.4,0.0035
COc1ccc(S(=O)(=O)N(C)CC(N)=O)cc1Cl,-13,x,3.6,x
C[C@@H]1CN([C@H](C)CO)C(=O)c2cc(NC(=O)Nc3ccc(C(F)(F)F)cc3)ccc2O[C@H]1CN(C)Cc1ccc(-c2ccccc2)cc1,10,-12,-7.8,0.13

# Bioassay records as filed in PubChem BioAssay.

# Not all compounds are listed (hit frequency here may not be typical).
